Assay outcomes (PubChem BioAssay)
Vaccinia stage: blocks a specific stage of Vaccinia orthopoxvirus infection | 89,000 compounds, 0.01% hits | Vaccinia-infected cells, mCherry/Venus stage reporter fluorescence; stronger effect = lower value; some inactives read as strong as hits | activity change (mCherry), % (concentration not given with the values);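 active = mCherry past -33% and 40 or more points under the early reporter, replicates agreeing; inconclusive = past -33% without that gap or agreement; tested in A549 cells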;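 note: scaled between vehicle wells and reference inhibitor wells; 23 nL library stock went into each well; one replicate is shown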
Vaccinia stage Venus: second read-out of Vaccinia stage, no call of its own (marks repeat the call); activity change (Venus), %; measured here: Venus reporter, other viral stage;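 negative = less Venus signal; first of two replicates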
* = called active by the depositor; u = inconclusive; x = no result given; & = joins results of further samples.

Results follow in this order: Vaccinia stage | Vaccinia stage Venus
O=C(NCC[C@H]1CC[C@@H](NC(=O)C2CCOCC2)[C@H](CO)O1)c1ccc(F)cc1
 : 0 | 4
CO[C@H]1CN(C)C(=O)c2ccc(NC(C)=O)cc2OC[C@@H](C)N(S(=O)(=O)c2cn(C)cn2)C[C@@H]1C
 : 3 | -1
O=C(C[C@H]1C[C@@H]2c3cc(NS(=O)(=O)c4ccc(F)cc4)ccc3O[C@@H]2[C@H](CO)O1)NCc1ccccn1
 : 9 | 5
CCCC#Cc1ccc2c(c1)O[C@H](CN(C)C(=O)c1ccccc1F)[C@H](C)CN([C@H](C)CO)S2(=O)=O
 : u | x
CN(C)C(=O)c1cccc(-c2ccc([C@@H]3[C@@H](CO)N4CCCCN(C(=O)C5CCCC5)C[C@@H]34)cc2)c1
 : 12 | -5
COc1ccc(CN(C)C[C@@H]2Oc3c(NC(=O)c4cnccn4)cccc3C(=O)N([C@@H](C)CO)C[C@H]2C)cc1
 : 3 | -3
CC(C)C[C@@H]1NC(=O)[C@H]2C[C@@H](C(=O)NCCCCCNC(=O)CS)[C@@H](c3cccc(OCCO)c3)N2C1=O
 : 17 | 14
C[C@H](CO)N1C[C@H](C)[C@H](CN(C)Cc2ccc(Cl)c(Cl)c2)Oc2ccc(NC(=O)NC3CCCCC3)cc2CC1=O
 : u | x
COCCNC(=O)C[C@H]1CC[C@@H]2[C@H](COC[C@H](O)CN2Cc2cccc(-c3ccncc3)c2)O1
 : 2 | 2
CNC[C@@H]1Oc2ccc(NC(=O)Cn3cnnn3)cc2C(=O)N([C@H](C)CO)C[C@@H]1C
 : 9 | 0
C[C@@H]1CN([C@@H](C)CO)C(=O)c2cc(NS(=O)(=O)c3ccc(Cl)cc3)ccc2O[C@@H](C)CCCCO[C@H]1CN(C)S(=O)(=O)c1cccs1
 : -20 | -21
CN1C(=O)c2cc(NC(=O)c3ccc(Cl)cc3)ccc2OC[C@H]2O[C@H](CC(=O)NCc3cccc(F)c3)CC[C@H]21
 : -26 | -18
C[C@H](CO)N1C[C@H](C)[C@@H](CN(C)C(=O)Nc2cccc3ccccc23)Oc2ccc(NC(=O)Nc3ccc(F)cc3)cc2CC1=O
 : 20 | 20
COc1ccccc1C#Cc1cnc2c(c1)C(=O)N([C@H](C)CO)C[C@H](C)[C@H](CN(C)C)O2
 : 0 | -5
COc1ccc(S(=O)(=O)Nc2cccc3c2O[C@H](CN(C)S(=O)(=O)c2cn(C)cn2)[C@@H](C)CN([C@@H](C)CO)C3=O)cc1
 : 1 | 4
O=C(C[C@H]1CC[C@H]2[C@@H](COC[C@H](O)CN2C(=O)Nc2ccc(Cl)cc2)O1)NC1Cc2ccccc2C1
 : u | x
Cc1noc(C)c1NC(=O)Nc1cccc2c1O[C@@H](CN(C)Cc1ccc(-c3ccccc3)cc1)[C@@H](C)CN([C@@H](C)CO)C2=O
 : 9 | 6
COc1cccc(-c2ccc([C@@H]3[C@H]4CN(C(=O)CN5CCOCC5)CC(=O)N4[C@H]3CO)cc2)c1
 : 31 | 25
O=C(c1ccc(F)cc1)N1CC(=O)N2[C@H](CO)[C@@H](c3ccc(C#CC4CCCCC4)cc3)[C@H]2C1
 : -34 | -30
C[C@H]1CN([C@@H](C)CO)C(=O)Cc2cc(NC(=O)Nc3ccccc3)ccc2O[C@@H]1CN(C)Cc1ccccc1
 : u | x

Next section.
Results follow in this order: Vaccinia stage | Vaccinia stage Venus
C[C@H]1CN([C@@H](C)CO)C(=O)c2cc(-c3ccccc3)cnc2O[C@H]1CN(C)Cc1ccccn1
 : 7 | 13
COc1ccccc1CN1C[C@@H](C)[C@H](OC)CN(C)C(=O)c2ccc(NC(=O)Nc3ccccc3OC)cc2OC[C@H]1C
 : u | x
COc1ccc2c3c(n(C)c2c1)[C@H](CO)N(CC1CCOCC1)CC31CCN(C(=O)CN(C)C)CC1
 : -10 | -1
CN(C)C(=O)c1cccc(-c2ccc3c(c2)[C@H]2[C@H](CCN2C(=O)c2ccccc2)[C@@H](CO)N3C)c1
 : 0 | 3
C[C@H]1CN([C@@H](C)CO)S(=O)(=O)c2ccc(C3=CCCC3)cc2O[C@@H]1CN(C)C(=O)c1ccccc1
 : 26 | 19
CCCNC(=O)N(C)C[C@H]1Oc2cc(C#C[C@@H](C)O)ccc2S(=O)(=O)N([C@@H](C)CO)C[C@@H]1C
 : 13 | 7
Cc1noc(C)c1S(=O)(=O)N(C)C[C@@H]1Oc2c(cccc2N(C)C)C(=O)N([C@H](C)CO)C[C@@H]1C
 : 16 | 12
Cc1noc(C)c1S(=O)(=O)Nc1ccc2c(c1)C(=O)N([C@H](C)CO)C[C@H](C)[C@H](CN(C)S(=O)(=O)c1ccc(F)cc1)O2
 : 9 | 5
O=C(Nc1cccc(F)c1)N1CCCCN2[C@H](CO)[C@@H](c3ccc(-c4ccccc4F)cc3)[C@H]2C1
 : u | x
C[C@@H]1CN([C@@H](C)CO)C(=O)c2cccc(NC(=O)Nc3ccc(C(F)(F)F)cc3)c2O[C@@H]1CN(C)S(=O)(=O)c1ccc(Cl)cc1
 : -33 | -26
O=C(Cc1ccccc1)N1CC(=O)N2[C@H](CO)[C@@H](c3ccc(-c4ccc(F)cc4)cc3)[C@@H]2C1
 : u | x
O=C(c1ccc(F)cc1)N1CC(=O)N2[C@H](CO)[C@@H](c3ccc(-c4cccnc4)cc3)[C@@H]2C1
 : 10 | -12
O=C(Cc1cccnc1)N1CCCCN2[C@@H](CO)[C@H](c3ccc(C#CC4CC4)cc3)[C@@H]2C1
 : 2 | 6
CN1[C@@H]2Cn3c(ccc(-c4ccc(F)cc4)c3=O)[C@H]1[C@@H](C(=O)Nc1nccs1)[C@@H]2CO
 : 1 | 3
C[C@H]1CN([C@@H](C)CO)C(=O)c2cc(-c3ccc(C#N)cc3)cnc2O[C@@H]1CN(C)Cc1ccncc1
 : 18 | 11
C[C@H](CO)N1C[C@H](C)[C@H](CN(C)Cc2ccc3c(c2)OCCO3)OCc2cnnn2CCCC1=O
 : 1 | 2
O=C(C[C@H]1C=C[C@@H](NC(=O)C2CCC2)[C@@H](CO)O1)NCCCN1CCOCC1
 : 3 | 2
CNC[C@@H]1Oc2ncc(-c3ccc(OC)cc3)cc2C(=O)N([C@H](C)CO)C[C@@H]1C
 : 2&-3 | -5&0
COc1cccc(C#Cc2cnc3c(c2)C(=O)N([C@@H](C)CO)C[C@@H](C)[C@@H](CN(C)C(=O)C2CCOCC2)O3)c1
 : 0 | 0
Cc1noc(C)c1NC(=O)Nc1ccc2c(c1)CC(=O)N([C@@H](C)CO)C[C@@H](C)[C@H](CN(C)C(=O)Nc1ccc(C(F)(F)F)cc1)O2
 : 14 | 10

Remaining list, next part:
Results follow in this order: Vaccinia stage | Vaccinia stage Venus
COc1ccc(-c2ccc3c(c2)[C@H]2[C@H](CCN2C(=O)CN2CCOCC2)[C@@H](CO)N3)cc1
 : -2 | -6
C[C@H]1CN([C@@H](C)CO)C(=O)Cc2cc(NC(=O)NC3CCCCC3)ccc2O[C@@H]1CN(C)C(=O)Nc1ccc2c(c1)OCO2
 : 10 | 5
C[C@H]1CN([C@@H](C)CO)C(=O)Cc2cc(NC(=O)Nc3ccccc3)ccc2O[C@@H]1CN(C)C(=O)Nc1ccc(F)cc1
 : 5 | 7
C[C@@H]1CN([C@@H](C)CO)C(=O)c2cc(NS(=O)(=O)c3ccc(F)cc3)ccc2O[C@@H](C)CCCCO[C@@H]1CN(C)S(=O)(=O)c1ccccc1
 : -28 | -14
Cc1ccc(S(=O)(=O)Nc2ccc3c(c2)C(=O)N([C@H](C)CO)C[C@@H](C)[C@@H](CN(C)C(=O)c2ccccc2)OCCCC[C@@H](C)O3)cc1
 : -18 | -19
COc1ccc(S(=O)(=O)Nc2ccc3c(c2)CC(=O)N([C@@H](C)CO)C[C@@H](C)[C@H](CN(C)CC2CCCCC2)O3)cc1
 : u | x
CC(C)NC(=O)Nc1ccc2c(c1)C(=O)N([C@@H](C)CO)C[C@@H](C)[C@H](CN(C)C(=O)c1ccncc1)OCCCC[C@H](C)O2
 : 26 | 6
O=C(CC1CC1)N[C@@H]1C[C@@H]2O[C@H](CO)CC[C@@H]2O[C@@H]1CCc1ccc(C#Cc2ccccc2)cc1
 : u | x
CC=Cc1ccc2n(c1=O)C[C@@H]1[C@@H](CO)[C@H](C(=O)NC3CCC3)[C@H]2N1Cc1cccnc1 (mixture of isomers)
 : 18 | 12
CNC[C@H]1OCCCC[C@@H](C)Oc2ccc(NC(=O)Nc3ccc4c(c3)OCO4)cc2C(=O)N([C@H](C)CO)C[C@@H]1C
 : 9 | 5
O=C(CN1CCOCC1)N1CC2(C1)[C@H](c1ccccc1)[C@H](CO)N2Cc1cccc(F)c1
 : -6 | -7
CCCN1C[C@@H](C)[C@@H](OC)CN(C)C(=O)c2cc(NC(=O)c3cnccn3)ccc2OC[C@@H]1C
 : 13 | 14
COc1cccc(C#Cc2ccc([C@@H]3[C@H](CO)N4C(=O)CN(C(=O)c5ccncc5)C[C@@H]34)cc2)c1
 : 7 | 0
CCCC(=O)N1CCC2(CC1)CN(C(=O)Nc1c(C)noc1C)[C@H](CO)c1c2c2ccc(OC)cc2n1C
 : 16 | 6
O=C(C[C@@H]1C[C@H]2c3cc(NS(=O)(=O)c4ccc(F)cc4)ccc3O[C@H]2[C@@H](CO)O1)NCc1ccc(-c2ccccc2)cc1
 : u | x
COCCNC(=O)C[C@H]1CC[C@H]2[C@H](COc3ccc(NC(=O)COC)cc3C(=O)N2C)O1
 : -2 | -4
CC(=O)N1[C@H](CO)[C@H](c2ccccc2)C12CN(C(=O)c1ccccn1)C2
 : 7 | 7
O=C(C1CCCC1)N1C[C@H]2[C@@H](c3ccccc31)[C@H](CO)N2C(=O)c1cccnc1
 : 10 | 5
Cc1ccc(S(=O)(=O)N[C@@H]2CC[C@@H](CC(=O)NCc3ccc(Cl)c(Cl)c3)O[C@@H]2CO)cc1
 : -25 | -13
Cc1ccc(S(=O)(=O)N(C)C[C@@H]2OCCCC[C@H](C)Oc3ccc(NC(=O)NC4CCCCC4)cc3C(=O)N([C@@H](C)CO)C[C@H]2C)cc1
 : -15 | -4

Carrying on:
Results follow in this order: Vaccinia stage | Vaccinia stage Venus
Cc1ccc(S(=O)(=O)N(C)C[C@H]2Oc3c(NC(=O)NC4CCCCC4)cccc3C(=O)N([C@@H](C)CO)C[C@@H]2C)cc1
 : -25 | -13
COc1ccccc1NC(=O)N1C[C@H]2[C@@H](c3ccccc31)[C@@H](CO)N2CC1CCCC1
 : -2 | -10
C[C@H](CO)N1C[C@H](C)[C@H](CN(C)Cc2ccc(Oc3ccccc3)cc2)Oc2ccc(NC(=O)Nc3ccc(F)cc3)cc2C1=O
 : u | x
COc1ccc2c3c([nH]c2c1)[C@H](CO)N(Cc1cccc(Cl)c1)CC31CN(C)C1
 : 1 | 6
Cc1ccccc1S(=O)(=O)N[C@H]1CC[C@H](CCNS(=O)(=O)c2cccc(F)c2)O[C@@H]1CO
 : -20 | -12
CCC(=O)Nc1ccc2c(c1)C(=O)N(C)C[C@H](OC)[C@@H](C)CN(C(=O)COC)[C@@H](C)CO2
 : 17 | 2
C[C@@H](NC(=O)C[C@@H]1C=C[C@H](NC(=O)CN2CCOCC2)[C@@H](CO)O1)c1ccccc1
 : 13 | 16
O=C(C1CCCC1)N1C[C@@H]2N[C@H](C1)C2c1ccc(-c2cccc(F)c2)cc1 (stereo partly specified)
 : u | x
C[C@@H]1CCCCO[C@H](CN(C)S(=O)(=O)c2cn(C)cn2)[C@H](C)CN([C@@H](C)CO)C(=O)c2cc(NC(=O)CCCCCC(=O)Nc3ccccc3N)ccc2O1
 : 7 | -3
COc1cccc(-c2ccc3c(c2)[C@H]2[C@H](CCN2C(=O)C2CCOCC2)[C@H](CO)N3)c1
 : -12 | -5
CCCNC(=O)N[C@@H]1CC[C@H](CC(=O)NCCc2ccccc2)O[C@H]1CO
 : 7 | 20
CN(C)C(=O)C[C@@H]1CC[C@@H](NS(=O)(=O)c2ccccc2)[C@@H](CO)O1
 : 1 | 2
CN1CCN(C(=O)C[C@@H]2C=C[C@H](NS(=O)(=O)c3cccc(F)c3)[C@@H](CO)O2)CC1
 : -12 | -5
COCC(=O)N1[C@H](CO)[C@@H](c2ccccc2)C12CN(C(=O)c1ccc(F)cc1)C2
 : 8 | 5
CN1C(=O)c2cc(NC(=O)C3CC3)ccc2OC[C@H]2O[C@H](CC(=O)NCc3ccccc3F)CC[C@H]21
 : -5 | -1
O=C(C[C@@H]1CC[C@@H]2[C@H](COC[C@H](O)CN2Cc2ccccc2)O1)NCc1ccccc1Cl
 : -6 | -12
N#Cc1ccc(-c2ccc(C3[C@@H]4CN(C(=O)Nc5ccc(C(F)(F)F)cc5)C[C@H]3N4)cc2)cc1 (stereo partly specified)
 : u | x
CO[C@H]1CN(C)C(=O)c2ccc(NC(=O)C3CCCCC3)cc2OC[C@@H](C)NC[C@@H]1C
 : 14 | 15
O=C1CNC[C@@H]2[C@@H](c3ccc(Br)cc3)[C@@H](CO)N12
 : 8 | 6

Seven compounds from above, arranged by length of the SMILES, descending.
Results follow in this order: Vaccinia stage | Vaccinia stage Venus
Cc1noc(C)c1S(=O)(=O)Nc1ccc2c(c1)C(=O)N([C@H](C)CO)C[C@H](C)[C@H](CN(C)S(=O)(=O)c1ccc(F)cc1)O2
 : 9 | 5
C[C@H]1CN([C@@H](C)CO)C(=O)Cc2cc(NC(=O)Nc3ccccc3)ccc2O[C@@H]1CN(C)C(=O)Nc1ccc(F)cc1
 : 5 | 7
CCCNC(=O)N(C)C[C@H]1Oc2cc(C#C[C@@H](C)O)ccc2S(=O)(=O)N([C@@H](C)CO)C[C@@H]1C
 : 13 | 7
CN(C)C(=O)c1cccc(-c2ccc3c(c2)[C@H]2[C@H](CCN2C(=O)c2ccccc2)[C@@H](CO)N3C)c1
 : 0 | 3
COCCNC(=O)C[C@H]1CC[C@@H]2[C@H](COC[C@H](O)CN2Cc2cccc(-c3ccncc3)c2)O1
 : 2 | 2
O=C(CN1CCOCC1)N1CC2(C1)[C@H](c1ccccc1)[C@H](CO)N2Cc1cccc(F)c1
 : -6 | -7
COCC(=O)N1[C@H](CO)[C@@H](c2ccccc2)C12CN(C(=O)c1ccc(F)cc1)C2
 : 8 | 5

The list is partial (hit frequency here may not be typical).
